GALR2 ag – GALR2 (human) receptor agonism; AID 803; GALR2-expressing cells, agonist activation read-out; O43603; activation, %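 (tested at 5 µM)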; 140,000 compounds, 0.48% hits;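 active = above mean plus 3 SD of all compounds, about 5% in these data, not always enough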;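 also: 0% = vehicle buffer wells and 100% = reference agonist at full effect; tested in CHO reporter cells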
Target sequence (O43603 whole entry, looked up): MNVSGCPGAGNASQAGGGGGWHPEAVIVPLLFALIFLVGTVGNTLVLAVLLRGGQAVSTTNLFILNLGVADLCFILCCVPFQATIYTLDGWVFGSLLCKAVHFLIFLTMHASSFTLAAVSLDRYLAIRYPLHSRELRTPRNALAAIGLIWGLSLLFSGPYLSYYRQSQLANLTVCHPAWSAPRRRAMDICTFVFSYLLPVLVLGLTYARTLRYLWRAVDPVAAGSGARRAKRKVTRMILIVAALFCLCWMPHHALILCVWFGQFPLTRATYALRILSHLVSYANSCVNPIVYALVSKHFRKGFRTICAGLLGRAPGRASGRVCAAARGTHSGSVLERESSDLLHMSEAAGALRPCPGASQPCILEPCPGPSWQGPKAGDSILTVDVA
HSV augment – HSV replication enhancement | HSV replication augmentation in cells, fold increase | maximum fold increase | 220,000 compounds, 0.005% hits;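 active = peak rise of 1.5-fold or more in the series; inconclusive = self-fluorescent or not available for retest; tested in PC3 cells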;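 also: first round at 10 µM; read as green reporter fluorescence; hits show the peak of a series up to 25 µM; 1 = signal of infected wells without compound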
INS promoter inh – TRM-6 insulin promoter activity inhibition; TRM-6 cells (human fetal islet line), insulin promoter-eGFP reporter, imaging; reporter expression induced with tamoxifen; 130,000 compounds, 0.9% hits; inhibition, % at 2 µM;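 active = inhibition above the mean plus 3 SD, with well images judged a real hit on visual review, cut at about 60% in these data, passing the limit was not always enough; inconclusive = inhibition over the cutoff but images rejected on review; inactive = inhibition not above the cutoff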
RGS16-Gao – modulates binding between human RGS16 and Galphao | bead-based flow cytometry RGS16-Galphao binding, fluorescence; actives lie on both sides | binding response (% of control), % at 10 µM | 220,000 compounds, 0.38% hits;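 active = below 25% or above 175%, edge rows of some plates excepted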;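 also: Galphao activated by GDP with aluminum fluoride before binding; 100% = wells without compound and 0% = beads without RGS; some results beyond the cut were filed as inactive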
Target sequence (O15492 whole entry, looked up): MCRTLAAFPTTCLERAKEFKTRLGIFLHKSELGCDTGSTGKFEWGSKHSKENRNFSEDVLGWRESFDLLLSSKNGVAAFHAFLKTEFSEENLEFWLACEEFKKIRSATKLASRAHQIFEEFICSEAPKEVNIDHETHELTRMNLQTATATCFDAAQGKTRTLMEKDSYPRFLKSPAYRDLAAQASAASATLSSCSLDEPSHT
Target sequence (P09471 whole entry, looked up): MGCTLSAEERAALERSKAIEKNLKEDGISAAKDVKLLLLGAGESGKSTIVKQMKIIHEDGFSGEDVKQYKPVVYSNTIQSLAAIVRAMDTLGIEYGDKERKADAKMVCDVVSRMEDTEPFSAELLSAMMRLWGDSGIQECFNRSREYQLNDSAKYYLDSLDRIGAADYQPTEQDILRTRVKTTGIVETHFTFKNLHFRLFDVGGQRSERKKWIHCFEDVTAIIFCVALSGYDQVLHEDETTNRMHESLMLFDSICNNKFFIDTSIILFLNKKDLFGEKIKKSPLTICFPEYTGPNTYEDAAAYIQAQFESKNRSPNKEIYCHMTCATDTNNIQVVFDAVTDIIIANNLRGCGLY
PKD1 kinase inh – inhibitors of human PKD1 kinase | Q15139 | PKD1 kinase fluorescence polarization assay | inhibition, %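 (about 10 µM by stock and volumes)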 | 200,000 compounds, 0.056% hits;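 active = inhibition of 50% or more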;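 also: controls were vehicle for no effect and a reference inhibitor for full effect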
INS promoter inh cell count – further read-out of INS promoter inh, marked with its call; normalized cell count, %; measured here: cell count, toxicity; reference of the scale not given here;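 cells exposed to compound for 48 h; stained nuclei by imaging scaled within each plate; lower means fewer cells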
HSV augment primary fold – second read-out of HSV augment, no call of its own (marks repeat the call); fold increase; compound at 10 µM; measured here: primary screen fold increase 10 uM; tested in PC3 cells;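 GFP signal in the first replicate; 1 = infected wells without compound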
* hit, by the source's call; i = inactive; u = inconclusive; x = not tested or not shown; [ ] = remark or other dose. Rows are unselected; about 1.2% have a hit in one of these screens.

SMILES | GALR2 ag | HSV augment | HSV augment primary fold | INS promoter inh | INS promoter inh cell count | RGS16-Gao | PKD1 kinase inh
Cc1ccc2c(Cl)cc(Cl)c(OCC(=O)Nc3cccc(S(N)(=O)=O)c3)c2n1 | -1.0 | i | 0.71 | -15 | 74 | 100 | -4
N#Cc1cc2cc3c(cc2nc1N1CCOCC1)OCO3 | 2.2 | i | 0.97 | -53 | 107 | 96 | -3
O=C(CCc1ccccc1)N1CCN(c2ccccn2)CC1 | -0.9 | i | 0.94 | -4 | 96 | 106 | -9
COC(=O)c1sccc1NC(=O)Nc1ccccc1F | x | i | 1 | x | x | 102 | -2
CC(=O)N1CCC(C(=O)Nc2ccccc2)(N(Cc2ccccc2)C(=O)c2cccnc2)CC1 | -1.0 | i | 0.99 | -18 | 126 | 106 | 9
CCOCCCNc1nc(C)nc2c1nnn2Cc1c(F)cccc1Cl | x | i | 0.73 | 47 | 128 | 100 | -7
N#C/C(=C\c1cccs1)C(=O)NCC1CCCO1 (stereo not drawn) | -1.2 | i | 0.88 | 0 | 103 | 102 | -5
CC(=O)c1ccc(OCC(=O)Nc2ccc3c(c2)CCC3)cc1 | x | i | 0.81 | -22 | 137 | 98 | -2
O=C(Nc1cccc(S(=O)(=O)N2CCCC2)c1)C1CCCN1C(=O)c1cccs1 (stereo not drawn) | x | i | 0.97 | x | x | 99 | x
Cc1ccc2cc(CN(CCN(C)C)C(=O)Nc3ccc(Cl)cc3)c(=O)[nH]c2c1 | x | i | 0.86 | x | x | 102 | 3
O=c1[nH]c(SCc2ccc(Cl)cc2)nc2[nH]ncc12 | x | i | 0.96 | x | x | 91 | -10
Cc1nc2c3ccccc3nc(NNC(=O)CCC(=O)NC3CCCC3)n2n1 | x | i | 0.95 | -36 | 76 | 98 | 7
O=c1c2ccccc2nc2n1CCS2 | -1.4 | i | 1 | x | x | 99 | -5
COc1ccc(OC)c(CCNC(=O)C(=O)Nc2ccc3nc4n(c(=O)c3c2)CCCCC4)c1 | x | i | 0.87 | x | x | 100 | x
CCOC(=O)CC1C(=O)NCCN1S(=O)(=O)c1ccccc1Cl (stereo not drawn) | 0.1 | i | 0.81 | 20 | 90 | 95 | 12
N#C/C(=C/c1ccc(Sc2nc3ccccc3[nH]2)o1)c1cccc(F)c1 | 0.3 | i | 0.94 | 72* | 147* | 100 | 6
O=C(NCC1CCS(=O)(=O)C1)Oc1ccccc1 (stereo not drawn) | 0.0 | i | 0.94 | x | x | 291*[activator] | 2
CCOC(=O)N1CCN(C(=O)c2ccc(CNS(=O)(=O)c3ccc(C)cc3)cc2)CC1 | -0.8 | i | 0.98 | x | x | 106 | -11
CCN(CC)CCNC(=O)C1c2ccccc2C(=O)N(C)C1c1cn(C)c2ccccc12 (stereo not drawn) | -0.9 | i | 0.94 | -26 | 115 | 100 | 5
COc1cc(C(=O)Oc2ccccc2/C=N/NC(=O)c2ccc(Cl)cc2Cl)cc(OC)c1OC | -0.5 | u | x | -2 | 120 | 86 | 8
Cn1nc(-c2ccc(N3CCOCC3)c(NC(=O)c3ccccc3)c2)c2ccccc2c1=O | -5.4 | x | x | 0 | 96 | x | -6
O=C(/C=C/c1ccnc2ccccc12)c1cccs1 | x | i | 0.9 | x | x | 98 | -4
O=C(OCn1nnc2ccccc2c1=O)c1ccc2ncsc2c1 | -2.2 | i | 0.96 | x | x | 98 | -5
Cc1cc(N)c(C)c([N+](=O)[O-])c1C | -0.9 | i | 0.84 | 19 | 155 | 93 | -3
CCOc1ccccc1-n1c(SCC(=O)NC2CCCC2)nnc1-c1ccoc1C | -0.7 | i | 0.81 | 9 | 159 | 103 | -3
CS(=O)(=O)N(CCc1ccccc1)CC(=O)NCc1ccccn1 | -0.4 | i | 0.99 | 23 | 53 | 101 | -14
N#CC(C(=O)c1ccc(S(=O)(=O)N2CCCCCC2)cc1)c1nc2ccccc2[nH]1 (stereo not drawn) | 0.2 | i | 1.1 | x | x | 104 | 12
CCn1c(SCC(=O)NCCc2ccccc2)nc2sc3c(c2c1=O)CCN(C)C3 | x | i | 0.96 | x | x | 103 | x
CCOc1ccc(N2C(=O)/C(=C/c3ccccc3OCC(=O)OC)N(CC(=O)OC)C2=S)cc1 | x | i | 1 | x | x | 110 | 0
Cc1ccc(-c2cc(C(=O)O)n[nH]2)s1 | x | i | 0.97 | x | x | 101 | -2

Not a retest: an excerpt of the list.
SMILES | GALR2 ag | HSV augment | HSV augment primary fold | INS promoter inh | INS promoter inh cell count | RGS16-Gao | PKD1 kinase inh
Cc1ccc2c(Cl)cc(Cl)c(OCC(=O)Nc3cccc(S(N)(=O)=O)c3)c2n1 | -1.0 | i | 0.71 | -15 | 74 | 100 | -4
N#Cc1cc2cc3c(cc2nc1N1CCOCC1)OCO3 | 2.2 | i | 0.97 | -53 | 107 | 96 | -3
O=C(CCc1ccccc1)N1CCN(c2ccccn2)CC1 | -0.9 | i | 0.94 | -4 | 96 | 106 | -9
COC(=O)c1sccc1NC(=O)Nc1ccccc1F | x | i | 1 | x | x | 102 | -2

(further entries)
SMILES | GALR2 ag | HSV augment | HSV augment primary fold | INS promoter inh | INS promoter inh cell count | RGS16-Gao | PKD1 kinase inh
COc1ccccc1NC(=S)N/N=C/c1ccc(O)cc1 | 0.3 | i | 0.71 | 38 | 127 | 180 | -3
CC(Oc1ccc(Cl)cc1Cl)C(=O)NCCN1CCOCC1 (stereo not drawn) | -0.1 | i | 0.65 | -27 | 56 | 103 | -9
CC12C(=O)N(c3cccc(OC(=O)c4ccco4)c3)C(=O)C1C1c3ccccc3C2c2ccccc21 (stereo not drawn) | -1.3 | i | 1 | 22 | 86 | 99 | 3
COc1ccc(N(C(C)C(=O)N/N=C/c2ccc(OC(C)C)cc2)S(C)(=O)=O)cc1 (stereo not drawn) | -2.1 | i | 0.91 | x | x | 102 | 13
Cc1ccn(CC(=O)N2CCCC(C(=O)c3cccc4ccccc34)C2)n1 (stereo not drawn) | x | i | 1.1 | x | x | 101 | 1
CC(C)Oc1ccc(C(CC(=O)O)NC(=O)C2CCCCC2)cc1 (stereo not drawn) | -2.2 | i | 0.98 | -29 | 128 | 101 | -7
Cc1ccc2[nH]c(=O)c(CN(CCCO)S(=O)(=O)c3c(C)ccc4nsnc34)cc2c1 | -0.2 | i | 0.86 | 41 | 91 | 100 | -4
CC1=NN(C(=O)c2ccc(Cn3nc(C)c([N+](=O)[O-])c3C)cc2)C(O)(C(F)(F)F)C1 (stereo not drawn) | -0.8 | i | 0.86 | -11 | 82 | 106 | -6
Cn1c(SCC(=O)Nc2sc3c(c2C#N)CCC3)nnc1C1COc2ccccc2O1 (stereo not drawn) | -1.3 | i | 1.3 | x | x | 101 | 2
CC(=O)N1CCc2ccc(C(=O)CN3CCN(c4cccc(C)c4C)CC3)cc21 | -2.6 | i | 1.2 | 36 | 77 | 100 | -9
Cc1cc(CNC(=O)COc2c(F)c(F)cc(F)c2F)c2ccccc2n1 | x | i | 0.96 | -26 | 94 | 100 | 7
CCc1cc2ccc(OC)cc2nc1SCC(=O)N1CCN(C(=O)c2ccco2)CC1 | x | i | 0.81 | x | x | 100 | x
O=C(c1ccco1)N1CCN(CC(=O)N2CCCc3c2c(=O)oc2ccc(O)cc32)CC1 | -1.0 | i | 1.5 | -62 | 60 | 103 | -7
N#C/C(=C\C1=C(N2CCOCC2)C(=C/c2cccc([N+](=O)[O-])c2)/CC1)C(=O)Nc1ccccc1F | 1.3 | u | x | i | 137 | 100 | -7
COc1ccccc1-c1ccc(=O)n(CC(=O)NCc2ccc3c(c2)OCO3)n1 | -1.1 | i | 1.1 | -9 | 164 | 104 | 1

Single values from the entries so far:
In INS promoter inh, CC(=O)N1CCc2ccc(C(=O)CN3CCN(c4cccc(C)c4C)CC3)cc21 has 36
In INS promoter inh, Cc1ccc2[nH]c(=O)c(CN(CCCO)S(=O)(=O)c3c(C)ccc4nsnc34)cc2c1 has 41
In PKD1 kinase inh, COc1ccccc1NC(=S)N/N=C/c1ccc(O)cc1 has -3
In RGS16-Gao, CC12C(=O)N(c3cccc(OC(=O)c4ccco4)c3)C(=O)C1C1c3ccccc3C2c2ccccc21 (stereo not drawn) has 99

Grouped by structure, the entries above with a COOH group
SMILES | GALR2 ag | HSV augment | HSV augment primary fold | INS promoter inh | INS promoter inh cell count | RGS16-Gao | PKD1 kinase inh
Cc1ccc(-c2cc(C(=O)O)n[nH]2)s1 | x | i | 0.97 | x | x | 101 | -2
CC(C)Oc1ccc(C(CC(=O)O)NC(=O)C2CCCCC2)cc1 (stereo not drawn) | -2.2 | i | 0.98 | -29 | 128 | 101 | -7

(more compounds)
SMILES | GALR2 ag | HSV augment | HSV augment primary fold | INS promoter inh | INS promoter inh cell count | RGS16-Gao | PKD1 kinase inh
Cc1nn(-c2ccccc2)c2[nH]c(=O)c(CNc3ccc4c(c3)OCCO4)cc12 | -0.6 | i | 1.1 | x | x | 102 | 5
COc1cccc(N2CC(=O)N(NC(=O)c3sc4nc(C)cc(C)c4c3N)CC2=O)c1 | x | i | 0.97 | x | x | 107 | x
Nc1[nH]nc2nc(N3CCCC3)nc(-c3ccccc3)c12 | -0.3 | i | 0.84 | x | x | 102 | -4
O=C(NNC(=O)C1CC2CCC1C2)c1ccccc1 (stereo not drawn) | -0.9 | i | 1.1 | 29 | 94 | 99 | 7
C/C(=N/NC(=S)Nc1cccc(C)c1)c1cccc([N+](=O)[O-])c1 | x | i | 0.98 | 21 | 111 | 96 | -1
O=C(CCN1C(=O)C2C3C=CC(C3)C2C1=O)N1CCN(c2ccccn2)CC1 (stereo not drawn) | -1.7 | i | 0.79 | -19 | 130 | 104 | 11
COc1ccc(Cc2nnc(SCC(=O)NC3CCCC3)o2)cc1 | -1.8 | i | 1.1 | 62 | 118 | 107 | 1
Cc1nn(-c2nc3ccccc3s2)c(N)c1Sc1ccc(F)cc1 | -1.4 | i | 0.75 | x | x | 100 | -5
COc1cc(-c2ccccc2)nc2ccccc12 | -2.4 | i | 0.91 | -95 | 162 | 92 | 3
O=C(N/N=C/c1cccc([N+](=O)[O-])c1)c1nc2ccccc2c(=O)[nH]1 | x | i | 1 | x | x | 104 | x
Cc1cc(S(=O)(=O)N2CCCOC2CNC(=O)C(=O)NCc2ccco2)ccc1F (stereo not drawn) | x | i | 1 | x | x | 103 | 5
Cc1c(/C=N/NC(=O)c2cc(=O)[nH]c(=O)[nH]2)c2ccccn2c1C(=O)c1ccccc1 | -1.0 | i | 1 | -5 | 124 | 145 | 14
CC1CC(C)CN(C(=O)Nc2ccccc2F)C1 (stereo not drawn) | x | i | 1.1 | x | x | 107 | x
CCOC(=O)N1CCC(N2CCN(S(=O)(=O)c3ccc(OC)cc3)CC2)CC1 | x | i | 1.1 | x | x | 100 | -1
CCCN(CCO)Cc1ccc(Br)cc1 | -0.9 | i | 0.94 | 22 | 114 | 104 | -4
C=CCNc1cnn(-c2ccc(C)cc2)c(=O)c1Cl | -1.3 | i | 1 | -8 | 46 | 115 | 6
CC1(C)CC(=O)C2=C(C1)OC(N)=C(C#N)C2c1ccoc1 (stereo not drawn) | x | i | 1 | x | x | 106 | 4

An excerpt from above in order of heavy-atom count, high to low:
SMILES | GALR2 ag | HSV augment | HSV augment primary fold | INS promoter inh | INS promoter inh cell count | RGS16-Gao | PKD1 kinase inh
COc1cc(C(=O)Oc2ccccc2/C=N/NC(=O)c2ccc(Cl)cc2Cl)cc(OC)c1OC | -0.5 | u | x | -2 | 120 | 86 | 8
N#CC(C(=O)c1ccc(S(=O)(=O)N2CCCCCC2)cc1)c1nc2ccccc2[nH]1 (stereo not drawn) | 0.2 | i | 1.1 | x | x | 104 | 12
O=C(CCc1ccccc1)N1CCN(c2ccccn2)CC1 | -0.9 | i | 0.94 | -4 | 96 | 106 | -9

Compound activity as filed in PubChem.
